Screening results: PubChem BioAssay, National Center for Advancing Translational Sciences (NCATS)
HPGD block: blocks human HPGD enzyme activity; Potency, µM, for inactives: top-dose activity change, negative = inhibition, hits mostly inhibitors; purified HPGD, NADH fluorescence kinetic, PGE2 substrate; 150,000 tested, 4.3% active; active = well fitted inhibition curve with a large enough effect (not every such curve was filed as active); inconclusive = small, poorly fitted or top-dose-only effect, or another doubt; inactive = no such curve, though single readings can be large or run the other way;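 also: top concentration of the series not given in the record; plate controls included wells without enzyme; inactives centre near -10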
Target sequence (P15428 whole entry, looked up): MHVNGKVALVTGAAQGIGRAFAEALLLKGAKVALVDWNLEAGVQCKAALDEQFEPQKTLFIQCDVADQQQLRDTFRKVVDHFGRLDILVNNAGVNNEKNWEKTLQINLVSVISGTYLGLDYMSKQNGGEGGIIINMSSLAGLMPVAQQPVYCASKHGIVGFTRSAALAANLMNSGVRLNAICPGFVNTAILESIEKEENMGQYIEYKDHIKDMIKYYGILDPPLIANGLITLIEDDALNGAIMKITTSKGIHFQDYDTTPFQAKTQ
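NADH formation kinetics: reaction with 30 uM PGE2 and 1 mM NAD+ (final), 20 nM enzyme, Tris-HCl pH 8 with Tween 20, after 15 min compound preincubation at room temperature. Fluorescence change, last versus first of five reads.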
Active calls of the source: *; u = inconclusive; & = joins results of further samples. % is scaled to controls: 0 for no effect and ±100 for the full control effect; potency is read from the fitted curve at half-maximal effect. These rows are one share of the data (hit frequency here may not be typical).

HPGD block | structure
-28% | Cc1ccc(C(=O)C2=C(O)C(=O)N(c3ncccn3)C2c2ccc(Cl)cc2)o1 (stereo not drawn)
-7% | CC1CCN(c2ccc(N3C(=O)C4CCCCC4C3=O)cc2[N+](=O)[O-])CC1 (stereo not drawn)
18µM* | O=c1[nH]n(-c2ccc(F)cc2)c2ncccc12
-11% | Cc1cc(C(=O)COC(=O)CNC(=O)c2ccc(F)cc2)c(C)n1Cc1ccco1
-5% | CCN=C(Nc1ccc2c(c1)OCO2)SC1CC(=O)N(c2ccccc2F)C1=O (stereo not drawn)
-5% | Cc1ccccc1C1C(C#N)=C2N=C(N)c3c(sc4c3CCCCC4)N2C2=C1C(=O)CC(C)(C)C2 (stereo not drawn)
-26% | Cc1cccc(Nc2cc(C)c3c(O)cccc3n2)c1C
u | CCOc1c2ccc(C(=O)NCCc3ccc(C)cc3)cc2nn1CC
-1% | CC1(OC(=O)C2CCCC2)C(=O)C=C2C=C(c3ccsc3)N(CCN3CCOCC3)C=C2C1=O (stereo not drawn)
-5% | COC(=O)c1ccc(CN2C(=O)NC3(CCC(C)CC3)C2=O)o1 (stereo not drawn)
-19% | Cc1nnc(NCCc2ccccc2)[nH]c1=O
-8% | CCOc1ccc(C2=C(C=Nc3c(C)n(C)n(-c4ccccc4)c3=O)C(c3ccc(F)cc3)c3ccccc3O2)cc1 (stereo not drawn)
-12% | COc1ccc(C(=O)O)cc1F
-12% | CCN(CC)c1ccc(NC(=O)OC)cc1
-11% | C[C@@H]1C(=O)CC2C(C)(C)CCC[C@]2(C)[C@@]1(O)CCc1ccoc1 (stereo partly drawn)
-14% | Cc1cc(C)c(NC(=O)CSc2nc(COc3ccccc3)nc3ccccc23)c(C)c1
-3% | Nc1cc(Cl)ccc1Oc1ccc2ccccc2c1
-19% | CCOc1ccc(C2c3c(oc4cc(C)c(C)cc4c3=O)C(=O)N2CCCN2CCOCC2)cc1 (stereo not drawn)
-12% | Cn1nc(CC(=O)NC2CCCCCCCCCCC2)c2ccccc2c1=O
u | CC1(C)Cc2c(cnn2-c2ccccc2)C(=O)/C1=N\NC(=O)c1ccccc1O
-12% | O=C(CSc1nc(-c2ccccc2)cs1)N1CCN(C(=O)c2ccco2)CC1
-8% | Cc1ccccc1NS(=O)(=O)c1cc(S(C)(=O)=O)ccc1C
u | CCOc1c2ccc(C(=O)NCc3ccc4c(c3)OCO4)cc2nn1CCOC
u | COc1cccc2cc(C(=O)NCc3ccco3)c(=Nc3ccc(C(=O)O)cc3)oc12
u | CCn1cc(C(=O)O)c(=O)c2cc(F)c(N/N=C/c3ccccc3)cc21
-26% | Cc1nc2ccccc2c2oc(C(=O)NCC3CCCO3)cc12 (stereo not drawn)
-6% | CCOc1ccc(Cc2nc(C)c(CC(=O)N3CCOCC3)c(=O)[nH]2)cc1
-7% | O=C(c1cccs1)N1CCc2ccccc21
-1% | CCCCOC(=O)C1CCCC(C(=O)OCCCC)N1 (stereo not drawn)
-1% | O=C(NC(CO)C(O)c1ccc([N+](=O)[O-])cc1)C(Cl)Cl (stereo not drawn)
-1% | CS(=O)(=O)N(CC(=O)Nc1ccc2c(c1)OCO2)c1ccccc1
-18% | O=C(Nc1ccccn1)c1cc(-c2cccnc2)nc2ccc(Br)cc12
-3% | O=C(O)c1ccc(COc2c(F)c(F)cc(F)c2F)o1
-6% | O=C(c1ccc(NC2=NC3CS(=O)(=O)CC3S2)cc1)N1CCN(Cc2ccccc2)CC1 (stereo not drawn)
-4% | C=CC(=O)OCCOCCOC(=O)C=C
14µM* | Cc1ccc(O)c(-c2cc(C(F)(F)F)[nH]n2)c1

Overlap with the part before: 5 compounds, followed by the next part.
HPGD block | structure
-18% | O=C(Nc1ccccn1)c1cc(-c2cccnc2)nc2ccc(Br)cc12
-3% | O=C(O)c1ccc(COc2c(F)c(F)cc(F)c2F)o1
-6% | O=C(c1ccc(NC2=NC3CS(=O)(=O)CC3S2)cc1)N1CCN(Cc2ccccc2)CC1 (stereo not drawn)
-4% | C=CC(=O)OCCOCCOC(=O)C=C
14µM* | Cc1ccc(O)c(-c2cc(C(F)(F)F)[nH]n2)c1
-21% | Cc1ccc(SCc2cc(=O)n3ccsc3n2)c(C)c1
u | O=C(NC(NC(=S)Nc1ccccc1C(=O)O)C(Cl)(Cl)Cl)c1ccco1 (stereo not drawn)
-6% | COC(=O)c1ccc(Cl)c(NC(=O)CN(c2ccc3c(c2)OCO3)S(C)(=O)=O)c1
-12% | Cc1ccc(CN2C(=O)C3CCCN3c3ccc(S(=O)(=O)N4CCOCC4)cc32)cc1 (stereo not drawn)
u | COc1ccc(-c2nnc(Nc3nc4c(OC)cccc4s3)o2)cc1
-3%&-12% | CC(C)NCC(O)COc1ccc(CCOCC2CC2)cc1 (stereo not drawn)
-8% | O=C(N/N=C\c1ccc2c(c1)CCC2)c1ccccc1O
7.1µM* | CCC(=O)OCCNc1cc(Sc2nc3ccccc3[nH]2)c2nonc2c1[N+](=O)[O-]
-6% | Cc1cccc(NC(=O)C2Cc3ccccc3CN2C(=O)OCc2ccccc2)c1C (stereo not drawn)
5% | CN[C@]1(C)[C@H]2CC[C@@H](C2)C1(C)C
-9% | COc1ccc(-c2nnn(CC#N)n2)cc1OC
-4% | Cc1ccc(Cc2nc(-c3cccc(C)c3)no2)cc1

Structural class, those above with an aryl methoxy group
HPGD block | structure
-12% | COc1ccc(C(=O)O)cc1F
u | COc1cccc2cc(C(=O)NCc3ccco3)c(=Nc3ccc(C(=O)O)cc3)oc12
u | COc1ccc(-c2nnc(Nc3nc4c(OC)cccc4s3)o2)cc1
-9% | COc1ccc(-c2nnn(CC#N)n2)cc1OC

(more compounds)
HPGD block | structure
-9% | COCCNC(=S)N/N=C(\C)c1ccc(-n2ccnc2)cc1
-25% | COc1ccc(C(=O)/C=C/c2ccc(OC)c(COc3ccccc3F)c2)cc1
1% | O=C(NNC(=O)C12CC3CC(CC(C3)C1)C2)c1cnccn1
-10% | Cc1onc(-c2ccccc2)c1C(=O)Nc1sc2c(c1C#N)CCC(C)C2 (stereo not drawn)
-7% | Cc1cc(C(=O)COC(=O)c2ccc[nH]c2=O)c(C)n1-c1ccc(F)cc1
28µM* | Oc1ccc(-c2csc(-c3ccccc3)n2)cc1O
28µM* | COc1ccc(Cc2nn3c(-c4ccccc4OC)nnc3s2)cc1
-9% | CCCc1cc(=O)oc2c(C)c(OCC(=O)c3ccc(N4CCCC4)cc3)ccc12
-17% | COc1ccccc1C(=O)Nc1ccc(C(=O)/C=C/c2cccs2)cc1
-16% | CSc1nc(C)cc(-n2ccc(=O)[nH]c2=O)n1
-17% | CC(C)CNC(=O)c1coc(=O)c(Br)c1
22µM* | COc1ccc(C(=S)Nc2ccc(C)cc2)cc1
-9% | O=C(Nc1ccc(F)cc1)NC1CCCCC1
-14% | O=S(=O)(c1ccccc1)N1CCC2(CCCN(Cc3cc(C(F)(F)F)cc(C(F)(F)F)c3)C2)CC1
-19% | Cc1cc2oc(=O)cc(CN3CCN(Cc4ccc5c(c4)OCO5)CC3)c2cc1C
-5% | COc1ccc(NC(=O)c2ccccc2NS(=O)(=O)c2ccc(C)cc2)c([N+](=O)[O-])c1
-6% | Cc1c(-c2ccccc2)oc2nc3c(c(=O)n(C)c(=O)n3C)n12
-16% | CC(C(=O)Nc1cccc([N+](=O)[O-])c1)N1CCN(C/C=C/c2ccccc2)CC1 (stereo not drawn)
6% | Cc1nnc(NC(=O)CCCCCN2C(=O)C3C4C=CC(C4)C3C2=O)s1 (stereo not drawn)
-1% | CN(C)C(CNS(=O)(=O)c1ccc(Cl)cc1)c1cccnc1 (stereo not drawn)
-2% | Cc1ccsc1C(=O)NNC(=O)C1CCCCC1C(=O)O (stereo not drawn)
-22% | O=C(c1ccc(Br)o1)N1CCN(c2ccc3nnc(-c4ccccc4)n3n2)CC1
-3% | CC(=O)Nc1ccc(S(=O)(=O)NCc2ccc(C(=O)NC(C)c3ccccc3)cc2)cc1 (stereo not drawn)
1% | O=C(O)CCC(=O)NNC(=O)c1cccc(Br)c1
u | COc1ccc(Cl)cc1-c1n[nH]c(=S)o1
0% | Cc1nn(-c2ccccc2)c(Cl)c1CN(C(=O)CCl)c1cccc2ccccc12
-13% | CCOc1ccc(NC(=O)Cn2nnc(-c3ccccc3NC(=O)CC)n2)cc1
-21% | COc1ccc(-n2ncc3c(SCC(=O)N4CCN(c5ccccc5OC)CC4)ncnc32)cc1
-10% | CCN(CC)CCCNC(CC(=O)Nc1cccc([N+](=O)[O-])c1)C(=O)O (stereo not drawn)
3.2µM* | O=C(c1ccc(CN2CCc3ccccc3C2)cc1)N1CCc2ccccc2C1
-13% | O=C(CN1C(=O)NC2(CCCC2)C1=O)N1CCN(C(=O)c2ccco2)CC1
-5% | Cc1ccc(CNC(=O)C2CCCN2C(=O)NCc2ccccc2)cc1 (stereo not drawn)
-6% | COc1ccc(C(=O)C(CCCCC(CN(C)C)C(=O)c2ccc(OC)cc2)CN(C)C)cc1 (stereo not drawn)
-8% | CCCS(=O)(=O)N1CCN(C(=O)COc2ccccc2)CC1
-5% | O=C(O)[C@H](CCc1ccccn1)c1ccccc1
-21% | CCn1c(=O)n(CC(=O)NC2CCCC(C)C2C)c(=O)c2ccccc21 (stereo not drawn)
-17% | O=C(COC(=O)c1cccc(NS(=O)(=O)c2ccc(F)c(F)c2)c1)NC(=O)NC1CCCCC1
-11% | CCN(CC)c1ccc(/C=C2\NC(=O)NC2=O)cc1
-11% | C[C@@H]1NC(=O)c2cc([N+](=O)[O-])cc(I)c2NCC[C@@H](C(N)=O)NC(=O)[C@H](CC(N)=O)NC1=O
-4% | COc1cccc(CNS(=O)(=O)c2cc(Br)cc3c2N(C(C)=O)C(C)C3)c1 (stereo not drawn)
-7% | COc1ccccc1NCCC(=O)OCC(=O)NC1CC1
-3% | COc1cc(/C=C/C(=O)Nc2ccc(C)cc2)cc(OC)c1OC
-4% | CCc1cc(-c2n[nH]c(C)c2-c2nc3ccccc3n2C)c(O)c(CN2CCN(C)CC2)c1O
-15% | c1ccc2c(-c3c[nH]c4ccccc34)c3ccccc3nc2c1
u | O=S(=O)(c1cccc(-c2cn3cccnc3n2)c1)N1CCCCCC1
-3% | COC(=O)c1ccc(CSc2nc3c(cnn3-c3ccc(C)c(C)c3)c(=O)[nH]2)o1
-12% | COc1ccc2[nH]cc(CCNc3ncncc3-c3ccccc3CN(C)C)c2c1
-4% | CC(C)[C@H](NC(=O)c1ccccc1)C(=O)OCC(=O)NCCC1=CCCCC1
-3% | COc1ccc(-c2coc3c(CN4CCCCC4)c(O)c(CN4CCCCC4)c(O)c3c2=O)cc1
u | COc1ccccc1Oc1c(C)oc2c(CN3CCN(C)CC3)c(O)ccc2c1=O
-24% | Cc1ccccc1Nc1nc(CSc2nnc(-c3ccoc3C)n2C)cs1
-8% | Cc1[nH]c2ccccc2c1C(=O)COC(=O)c1c(-c2c(F)cccc2Cl)noc1C
-4% | COc1ccc(OCCC(=O)Nc2cc(C)on2)cc1
-24% | COc1cccc(-n2nc(-c3ccnn3-c3ccc(C)cc3)c(=O)n(C)c2=O)c1
-7% | Cc1cccc(NC(=O)CSc2nnc(CNC(=O)c3ccc(S(=O)(=O)N(C)C)cc3)n2-c2cccc(C)c2)c1
-8% | CC(C)N(Cc1nc(-c2ccccc2)no1)C(=O)CSc1ccccc1
-11% | Cc1cc(C)n(-c2c(F)c(F)c(CO)c(F)c2F)n1
0% | C=CCOc1nc2c(c(=O)n(C)c(=O)n2C)n1Cc1ccc(Cl)cc1Cl
u | COc1ccc(C2NC(=O)c3ccccc3N2)cc1OC (stereo not drawn)
-29% | COc1ccc(Nc2ncc3c(n2)CC(c2ccc(C)cc2)CC3=O)cc1 (stereo not drawn)

Additional records.
HPGD block | structure
-23% | NS(=O)(=O)c1ccc(NS(=O)(=O)c2ccc(NC(=O)c3ccc(-c4ccccc4)cc3)cc2)cc1
-7% | CCCC12CN(C(=O)c3ccc(OC)cc3)CC(C)(CN(C(=O)c3ccc(OC)cc3)C1)C2=O
-9% | CC(C(=O)OCC(=O)Nc1ccc(S(=O)(=O)N2CCCCC2)cc1)N1C(=O)c2ccccc2C1=O (stereo not drawn)
-10% | COc1cc2c(cc1OC)C(C(=O)NCc1ccco1)C(c1cccs1)N(C)C2=O (stereo not drawn)
-3% | CCC(C)N=C1CC(C)(C)CC(=O)/C1=C(/O)Cc1ccccc1 (stereo not drawn)
-1% | O=C1OCc2cc(NC(=O)C34CC5CC(CC(C5)C3)C4)ccc21
-16% | Cc1ccc(/C(O)=C2\C(=O)C(=O)N(c3cc(C)on3)C2c2cccc(Br)c2)cc1 (stereo not drawn)
u | C/C(=N\NC(=O)c1cccc(S(=O)(=O)Nc2ccccc2Cl)c1)c1ccco1
-7% | O=C(Nc1ccccc1N1CCOCC1)c1ccc([N+](=O)[O-])cc1
1% | CCOC(=O)N1CCN(c2nc(-c3ccc(F)cc3)cs2)CC1
-11% | CCN(CC)C(=O)Cn1nnc(-c2ccc(C)o2)n1
-8% | COC(=O)c1ccc(CC(=O)c2nc3ccccc3s2)cc1
-9% | CC(C)CCN1CC(C(=O)NCCC2=CCCCC2)CC1=O (stereo not drawn)

Another view of some results above:
SMILES,HPGD block
CCOC(=O)N1CCN(c2nc(-c3ccc(F)cc3)cs2)CC1,1%
CCCC12CN(C(=O)c3ccc(OC)cc3)CC(C)(CN(C(=O)c3ccc(OC)cc3)C1)C2=O,-7%
NS(=O)(=O)c1ccc(NS(=O)(=O)c2ccc(NC(=O)c3ccc(-c4ccccc4)cc3)cc2)cc1,-23%
CCN(CC)C(=O)Cn1nnc(-c2ccc(C)o2)n1,-11%
